KSHV LANA nucl: inhibitors of KSHV LANA binding to nucleosomes; FITC-LANA1-23 / chicken nucleosome fluorescence polarization; hits give low values; z-score (no concentration beside the values); hit rate 0.3% among 51,000;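 active = both repeat wells score below -2 in polarization z-score versus plate sample wells, excluding overly bright wells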;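 also: 100 nL library stock added to about 30 µL; numbers are from one replicate; some results filed as inactive read as strong as hits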
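Assay system: FITC-LANA peptide and chicken nucleosomes; input: 240 nM purified chicken nucleosomes (480 nM peptide binding sites), final; also added: 50 nM FITC-LANA1-23 probe; medium: TEN-BT buffer, pH 7.5; doses: pin-transferred compound, 100 nL; times: 10–45 min, room temperature; technique: fluorescence polarization; replication: duplicates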
BasE inh: blocks the Acinetobacter baumannii siderophore enzyme BasE; purified BasE, fluorescence polarization binding displacement; inhibition, % (no concentration beside the values); hit rate 0.1% among 84,000; AID 485350;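 active = both replicates above 25% with normal brightness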;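 also: 0% = negative plate control signal and 100% = positive plate control signal; stock transfer was 100 nL into about 30 µL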
An asterisk follows results filed as active; & = joins results of further samples.

What do the screens show for `Cc1ccc(S(=O)(=O)NCc2ccc(C(=O)N3CCN(c4ccccn4)CC3)cc2)cc1`?
KSHV LANA nucl: 1.48; BasE inh: -3.2

How did CN(CC1COc2ccccc2O1)C(=O)/C=C/c1cccs1 (stereo not given) do in these assays?
BasE inh: -0.4

Results for Cc1csc(C(C#N)C(=O)CSc2nc(-c3ccccc3)c(-c3ccccc3)o2)n1 (stereo not given) ?
BasE inh: -7.8

Results for COc1cc2c(cc1OC)C1C(C(=O)N(C)C3CCCCC3)c3ccccc3C(=O)N1CC2 (stereo not given) ?
KSHV LANA nucl: 0.0585; BasE inh: 1.8

Results for O=C(Cn1cnc2sc(-c3ccccc3)cc2c1=O)c1ccccc1 ?
KSHV LANA nucl: 2.75

How did CC1(C)C2CC=C(COCC(O)CN3CCN(S(=O)(=O)c4ccccc4)CC3)C1C2 (stereo not given) do in these assays?
BasE inh: -0.5

Results for N#Cc1ccccc1NC(=O)COC(=O)c1ccc2c(c1)OCCO2 ?
BasE inh: 2.0

Results for C/C(=N\N(C=O)c1ccc(C(=O)N2CCOCC2)cc1)C(=O)c1ccccc1 ?
BasE inh: -0.5

What do the screens show for `Cc1cc(C)c2[nH]c(=O)c(C(c3nnnn3C(C)(C)C)N(CCc3ccc(F)cc3)Cc3ccco3)cc2c1` (stereo not given)?
KSHV LANA nucl: -0.284; BasE inh: 3.4

Results for CCCCn1c(N)c(N2CCOCC2)c(=O)n(CC(=O)Nc2ccc(S(=O)(=O)N(CC)CC)cc2)c1=O ?
BasE inh: 1.3

Results for CSc1c[nH]n(-c2ccccc2)c(=O)c1=O ?
KSHV LANA nucl: -0.307; BasE inh: -0.7

Results for CCC1=NN(C(=O)Cc2ccccc2)C(O)(c2ccccc2)C1 (stereo not given) ?
KSHV LANA nucl: 0.103; BasE inh: -1.2

How did CCOc1ccc(/C=N/O)cc1 do in these assays?
BasE inh: -2.1

How did C/C(=N\NC(N)=O)C1CC(CC(C)C)C(=O)O1 (stereo not given) do in these assays?
KSHV LANA nucl: 2.55; BasE inh: -2.7

Results for COc1ccc(OC)c(/C=C/C(=O)O)c1 ?
KSHV LANA nucl: -0.828; BasE inh: 3.1

What do the screens show for `CCN(CC)CCCC(C)Nc1ccnc2cc(Cl)ccc12` (stereo not given)?
KSHV LANA nucl: 0.933&-0.28&0.651&-0.0365; BasE inh: 0.0&-0.7

How did CCOC(=O)c1c(C)nn(Cc2cccc(Cl)c2)c1N do in these assays?
BasE inh: 2.1

What do the screens show for `c1ccc(-n2ncc3c(N4CCN(c5ncccn5)CC4)ncnc32)cc1`?
BasE inh: -0.6

Results for O=C(Nc1nc(-c2ccc3c(c2)OCO3)cs1)c1cc2ccccc2o1 ?
BasE inh: 1.8

What do the screens show for `O=C(CSc1ccc2c(c1)OCCO2)Nc1ccccc1`?
BasE inh: 1.6

Results for O=C(CC1CCCC1)N(c1nccs1)C1CCCCC1 ?
BasE inh: 1.8

Results for O=C(C1=C(O)/C(=C/c2ccccc2)CCC1)C(F)(F)F ?
BasE inh: 0.2

Results for COc1cc(OC)c(C2=NOC(C(=O)Nc3ncn(CC(=O)N4CCC(C)CC4)n3)C2)cc1Cl (stereo not given) ?
KSHV LANA nucl: 0.893; BasE inh: -2.4

What do the screens show for `CCOC(=O)N1CCC(C(=O)OCCOc2cccc(Cl)c2)CC1`?
BasE inh: 0.1

A draw from above in order of SMILES length, descending:
What do the screens show for `CCOC(=O)N1CCC(C(=O)OCCOc2cccc(Cl)c2)CC1`?
BasE inh: 0.1

What do the screens show for `O=C(CSc1ccc2c(c1)OCCO2)Nc1ccccc1`?
BasE inh: 1.6

How did CCOc1ccc(/C=N/O)cc1 do in these assays?
BasE inh: -2.1

Back to the main list; the 4 compounds before the break are reprinted first.
Results for O=C(CC1CCCC1)N(c1nccs1)C1CCCCC1 ?
BasE inh: 1.8

Results for O=C(C1=C(O)/C(=C/c2ccccc2)CCC1)C(F)(F)F ?
BasE inh: 0.2

Results for COc1cc(OC)c(C2=NOC(C(=O)Nc3ncn(CC(=O)N4CCC(C)CC4)n3)C2)cc1Cl (stereo not given) ?
KSHV LANA nucl: 0.893; BasE inh: -2.4

What do the screens show for `CCOC(=O)N1CCC(C(=O)OCCOc2cccc(Cl)c2)CC1`?
BasE inh: 0.1

Results for O=C(Nc1ccc(-c2nc3ncccc3o2)cc1)c1ccccc1Cl ?
KSHV LANA nucl: 0.123; BasE inh: -2.6

Results for CC(=O)Nc1sc2c(c1C(c1cccnc1)N1CCN(C)CC1)CCCC2 (stereo not given) ?
BasE inh: 2.8

What do the screens show for `CC(=O)Nc1ccc(/C=C2/SC(=Nc3ccccc3)NC2=O)cc1`?
KSHV LANA nucl: -1.4; BasE inh: 1.8

Results for CCN(CC)S(=O)(=O)c1ccc(NC(=O)CN2c3ccccc3CC2C)cc1 (stereo not given) ?
BasE inh: -1.6

What do the screens show for `CSc1ccc(CNc2ccc(S(N)(=O)=O)cc2)cc1`?
KSHV LANA nucl: 0.265; BasE inh: -1.1

Results for CSc1nnc(COc2cccc(C)c2)n1C ?
KSHV LANA nucl: 0.181; BasE inh: -1.4

Results for CCOC(=O)CC1=Nn2c(nnc2-c2cccs2)SC1 ?
BasE inh: -0.5

What do the screens show for `O=C(CN1CCOCC1)N1N=C(c2ccc(Cl)cc2)CC1c1ccco1` (stereo not given)?
KSHV LANA nucl: -0.903; BasE inh: -0.4

How did CC(=O)CC(=O)[C@@]1(O)CC[C@H]2[C@@H]3C=C(C)C4=CC(=O)CC[C@@H]4[C@H]3CC[C@@]21C do in these assays?
KSHV LANA nucl: 0.522; BasE inh: -2.2

What do the screens show for `O=c1[nH]nc(-c2ccccc2)c2cc3c(=O)[nH]nc(-c4ccccc4)c3cc12`?
KSHV LANA nucl: 0.651; BasE inh: 0.6

Results for CC(C)N(C(=O)CSc1nc2ccccc2c(=O)[nH]1)C(C)C ?
KSHV LANA nucl: -1.48; BasE inh: -1.9

How did CC1=NN(c2ccc(S(N)(=O)=O)cc2)C(=O)/C1=C\C=C/c1ccccc1 do in these assays?
BasE inh: 0.2

The list goes on, starting with the last 4 of the part before.
How did CC(=O)CC(=O)[C@@]1(O)CC[C@H]2[C@@H]3C=C(C)C4=CC(=O)CC[C@@H]4[C@H]3CC[C@@]21C do in these assays?
KSHV LANA nucl: 0.522; BasE inh: -2.2

What do the screens show for `O=c1[nH]nc(-c2ccccc2)c2cc3c(=O)[nH]nc(-c4ccccc4)c3cc12`?
KSHV LANA nucl: 0.651; BasE inh: 0.6

Results for CC(C)N(C(=O)CSc1nc2ccccc2c(=O)[nH]1)C(C)C ?
KSHV LANA nucl: -1.48; BasE inh: -1.9

How did CC1=NN(c2ccc(S(N)(=O)=O)cc2)C(=O)/C1=C\C=C/c1ccccc1 do in these assays?
BasE inh: 0.2

Results for Cc1nnc(SCC(=O)Nc2sc3c(c2C(N)=O)CCC(C)C3)[nH]c1=O (stereo not given) ?
BasE inh: -0.1

How did CC(C)(C)C(=O)Nc1cccc(C(=O)NN)c1 do in these assays?
KSHV LANA nucl: 0.34; BasE inh: -2.2

What do the screens show for `Cc1cc(C(=O)N2CCC(C)CC2)c(C)n1-c1ccc(F)cc1`?
BasE inh: -0.6

What do the screens show for `c1ccc(Nc2nc(-c3ccncc3)cs2)cc1`?
KSHV LANA nucl: 2.51; BasE inh: -3.1

How did COc1cccc2[nH]ccc12 do in these assays?
KSHV LANA nucl: -0.204; BasE inh: -0.6

What do the screens show for `CC1CC(C)CN(c2c3c(nc4cc(-c5ccc(F)cc5)nn24)CCC3)C1` (stereo not given)?
KSHV LANA nucl: -0.348; BasE inh: 1.5

Results for CC1(C)CC(=O)C(N=Nc2ccccc2C(F)(F)F)=C(O)C1 ?
KSHV LANA nucl: 0.691; BasE inh: -1.1

How did N#Cc1c(-c2ccccc2)oc2c1C(=O)c1ccccc1C2=O do in these assays?
BasE inh: 2.8

What do the screens show for `CN(CCOc1ccccc1)CCOc1ccccc1`?
BasE inh: 0.5

Results for Cc1ccc(S(=O)(=O)Nc2ccc(-c3csc(-c4ccccc4)n3)cc2)cc1 ?
BasE inh: 1.7

Results for O=C1OCCC1Sc1ncnc2ccccc12 (stereo not given) ?
BasE inh: 3.2

What do the screens show for `CNC(=O)c1ccsc1NC(=O)c1ccc(S(C)(=O)=O)cc1`?
KSHV LANA nucl: -0.397; BasE inh: -0.8

What do the screens show for `O=C(O)C(Cc1cnc[nH]1)N1C(=O)C2C3c4ccccc4C(c4ccccc43)C2C1=O` (stereo not given)?
KSHV LANA nucl: -0.73; BasE inh: 1.0

Results for Cc1cc(C)n2ncc(C(=O)NCCC3=CCCCC3)c2n1 ?
KSHV LANA nucl: -0.846; BasE inh: 2.4

How did c1ccc(COC2CCNCC2)cc1 do in these assays?
KSHV LANA nucl: -0.002; BasE inh: -1.0

How did CCCc1nc(N)c(C#N)c(-c2ccc(F)cc2)c1CC do in these assays?
KSHV LANA nucl: 0.208; BasE inh: 0.7

What do the screens show for `O=C(c1cnn2c(C(F)(F)F)cc(-c3ccccc3)nc12)N1CCN(c2ccccc2)CC1`?
KSHV LANA nucl: -0.678; BasE inh: 2.5

What do the screens show for `O=C(CSc1nnc(-c2ccccn2)c(-c2ccccn2)n1)c1ccc(N2CCCC2=O)cc1`?
KSHV LANA nucl: -0.432; BasE inh: 1.5

How did CN1CC=C(/C=C/C2=CC[C@H]3C[C@@H]2C3(C)C)CC1 do in these assays?
KSHV LANA nucl: 0.381; BasE inh: 0.7

How did CC1(C)NCS[C@H]1C(=O)O do in these assays?
BasE inh: 1.3

Results for NCCCCCc1nnc(SCC(N)=O)o1 ?
KSHV LANA nucl: 1.05; BasE inh: -0.3

How did COC(=O)c1nn(C)c(=O)c2ccccc12 do in these assays?
BasE inh: 5.4

Results for CCc1ccc(NC(=O)Cn2nc(CC)n3c(cc4cc(C)ccc43)c2=O)cc1 ?
KSHV LANA nucl: 1.41; BasE inh: 0.2

What do the screens show for `NC(=S)NCCc1ccccc1`?
BasE inh: -0.9

How did CCCCCCCCCCCCC/C=C/[C@@H](O)[C@@H](N)CO do in these assays?
KSHV LANA nucl: -0.909; BasE inh: -4.1

Results for COc1cc(OC)cc(C(C)(C)OC(=O)N2CCC[C@H]2C(=O)O)c1 ?
KSHV LANA nucl: -0.356; BasE inh: 0.0

How did CCC1CCC(N(CC)CCN(C)C)CC1 (stereo not given) do in these assays?
KSHV LANA nucl: 2.22; BasE inh: -0.7

Results for COC(=O)C1=CN(C23CC4CC(CC(C4)C2)C3)C=C(C(=O)OC)C1c1cccc(OC)c1 ?
BasE inh: -0.8

What do the screens show for `Cc1cc2oc(=O)cc(Cn3nnc(-c4ccc(F)cc4)n3)c2cc1C`?
BasE inh: 0.4

How did O=S1(=O)CCC(SSC2CCS(=O)(=O)C2)C1 (stereo not given) do in these assays?
BasE inh: -0.6

What do the screens show for `Cc1cccc(C)c1NC(=O)CS(=O)CC(=O)Nc1ccc(F)c(F)c1` (stereo not given)?
KSHV LANA nucl: -0.367; BasE inh: -0.7

What do the screens show for `CC1CCC(NC(=O)CSc2ccc(S(=O)(=O)N(C)C)cn2)CC1` (stereo not given)?
BasE inh: -0.2

What do the screens show for `Cc1ccc(-c2noc(CN(C)C(=O)CCN3C(=O)C4CC=CCC4C3=O)n2)cc1` (stereo not given)?
KSHV LANA nucl: 2.04; BasE inh: -4.7

How did NN1C(=O)CSC1=Nc1ccccc1 do in these assays?
KSHV LANA nucl: 0.269; BasE inh: 0.4

Results for Cc1nc(C(F)(F)F)ccc1-c1nnc(SCCCN2C(=O)c3ccccc3C2=O)o1 ?
BasE inh: 1.7

Results for CC(C)c1ccc(NC(=S)N2CCCC(c3ccc(F)cc3)=N2)cc1 ?
BasE inh: 3.0

How did Cc1nn(-c2ccccc2)c2sc(C(=O)NCc3cccnc3)cc12 do in these assays?
BasE inh: -6.4

How did O=C(CSCC(=O)N1CCCCC1)Nc1nc(-c2cccs2)cs1 do in these assays?
KSHV LANA nucl: 0.162; BasE inh: -1.8

What do the screens show for `CC(Sc1nc(N)cc(=O)[nH]1)C(=O)Nc1nc2ccccc2s1` (stereo not given)?
KSHV LANA nucl: 0.592; BasE inh: 2.1

What do the screens show for `CN1CCN(C2=NC(C(=O)Nc3ccccc3)CC(=O)N2)CC1` (stereo not given)?
KSHV LANA nucl: 2.27; BasE inh: -4.4

Results for CCc1ccc(NC(=O)CCNS(=O)(=O)c2ccc3c(c2)CC(C)N3C(C)=O)cc1 (stereo not given) ?
KSHV LANA nucl: -0.293; BasE inh: -1.2

What do the screens show for `O=C(Oc1ccc(-c2nnco2)cc1)C1=CC=CN2CCS(=O)(=O)N=C12`?
BasE inh: 2.8

Results for Cc1cccc(Nc2ccncc2S(=O)(=O)NC(=O)NC(C)C)c1 ?
KSHV LANA nucl: -0.398&-0.261&0.245; BasE inh: -3.5&0.0

Results for CCn1cc(C(=O)Nc2ccccc2Br)c(=O)c2cc(F)c(N3CCN(C(C)=O)CC3)cc21 ?
BasE inh: -2.7

Results for CCN(CC)c1nc(SCCOC(=O)Nc2ccccc2)nc(N(CC)CC)n1 ?
KSHV LANA nucl: 0.0885; BasE inh: 1.4

How did CC1OCN(c2ccc(OC(F)(F)F)cc2)Cn2c1nc1ccccc12 (stereo not given) do in these assays?
KSHV LANA nucl: 0.47; BasE inh: -0.3

How did COc1cc2c(cc1OC)C1N(CC2)C(C(=O)c2cccs2)=NN1c1ccccc1 (stereo not given) do in these assays?
BasE inh: 0.1

How did O=C(O)CCCc1ccc(/C=N/O)s1 do in these assays?
KSHV LANA nucl: 0.0705; BasE inh: -0.3

Results for NC1=NC(=O)CC(C(=O)Nc2ccc(Br)cc2)S1 (stereo not given) ?
BasE inh: 1.3

High-throughput results as filed in PubChem.

Not all compounds are listed, so the mix of outcomes need not match the whole.
